Screening results deposited in PubChem by SRMLSC.
H5N1 CPE: MDCK cell protection from H5N1 avian flu. inhibition, % at 50 µM. cytopathic effect, luminescence, 72 h; hits give high values; no value below 0 was filed and about half of the inactive calls have no number; reference of the scale not given here. 96,000 tested, 0.07% active. AID 740; in the data active means inhibition above about 25%
Numbers without * were called inactive; i = inactive.

SMILES | H5N1 CPE
CC1CCCN(C(=O)C(C)Sc2nc(-c3ccccc3)cc(C(F)(F)F)n2)C1 (configuration not stated) | 0.2
Cn1cccc1C(=S)N=P(C1CCCCC1)(N1CCOCC1)N1CCOCC1 | 0.5
Oc1ccc(Oc2ccc3c(C(F)(F)F)cc(C(F)(F)F)nc3n2)cc1 | 0.8
COc1cc(C(=O)Nc2ccc(NC(=O)c3ccco3)nc2)cc(OC)c1OC | i
CCOc1ccc(NC(=O)CSc2nc3cccnc3n2CC)cc1 | 0.9
CCN(CC)S(=O)(=O)c1ccc(N=N/C(C(C)=O)=C(/C)O)cc1 | i
COC(=O)[C@H](CCSC)NC(=O)N1CCC(C)CC1 | i
O=C(Cn1[nH]c(=O)c2ccccc2c1=O)NCc1cccnc1 | 1.4
CC1=C(C(=O)OC2CCCCCCC2)C(c2cccc(O)c2)NC(=O)N1 (configuration not stated) | i
CC(C)N=C(Nc1ccc(Cl)cc1)c1cccnc1 | 0.0
CC(=O)N(Cc1c(C)nn(-c2ccccc2)c1Cl)c1ccc(Cl)cc1 | 9.4
COCCNc1c2c(nc3c(-c4ccccc4)c(C)nn13)CCCC2 | 4.5

Part of the list above in another layout:
CC1=C(C(=O)OC2CCCCCCC2)C(c2cccc(O)c2)NC(=O)N1 (configuration not stated)
  H5N1 CPE: i

CC(C)N=C(Nc1ccc(Cl)cc1)c1cccnc1
  H5N1 CPE: 0.0

Additional records:
SMILES | H5N1 CPE
CCc1nc(NCCN2CCOCC2)c(C#N)c2c1CCCC2 | i
COc1ccc2[nH]c(=O)c(CN(CCO)S(=O)(=O)c3c(C)ccc4nsnc34)cc2c1 | i
O=C(COc1ccccc1)N1CCN(S(=O)(=O)c2ccc(Cl)cc2)CC1 | 0.9
N#Cc1nc(COc2ccccc2F)oc1NCc1ccc(F)cc1 | 1.4
COc1ccc(N2CCN(C(=O)c3ccc4c(=O)n(CC5CCCO5)c(=O)[nH]c4c3)CC2)cc1 (configuration not stated) | 0.3
COC(=O)c1cc2nc(-c3ccc(OC)c(OC)c3)cc(C(F)(F)F)n2n1 | i
COc1ccc(Cl)cc1-n1c(C)cc(C=O)c1C | 1.7
Cn1nnnc1SCC(=O)NCC(=O)c1ccccc1 | 0.1
C=CCOc1cccc(C2c3c(oc4ccccc4c3=O)C(=O)N2c2ccccn2)c1 (configuration not stated) | 0.1
COc1ccc(NC(=O)CS(=O)CC(=O)NCc2cccc(C(F)(F)F)c2)cc1 (configuration not stated) | i
CC1CN(c2oc(-c3ccco3)nc2S(=O)(=O)c2ccccc2)CC(C)O1 (configuration not stated) | 2.2
CC(C(=O)NCc1ccccc1)N1C(=O)C2CC=C(Cl)CC2C1=O (configuration not stated) | 0.7
CN(C)CCN1C(=O)C(O)=C(C(=O)c2ccco2)C1c1ccccc1F (configuration not stated) | 0.7
COc1ccc(C2CC(c3cccc(C)c3)n3nc(N)nc3N2)cc1 (configuration not stated) | 1.4
Cc1nc(-c2cccc(NS(=O)(=O)c3cccc4ccccc34)c2)cs1 | 0.5
Cc1ccccc1C(=O)Nc1ccccc1-c1nnn(CC(=O)Nc2ccc3c(c2)OCCO3)n1 | i
COc1ccccc1/C=C/C(=O)c1ccc(Cl)cc1 | i
COc1ccccc1CNC(=O)COC(=O)c1ccc(S(=O)(=O)N2CCCC2)cc1 | 0.2
Cc1nn(-c2ccccc2)c(C)c1C(=O)OCC(=O)NC(=O)NC1CCCC1 | 1.9
CCn1c(Cc2ccccc2)nnc1SCC(=O)Nc1cc(C)on1 | 0.3
Cc1cc(NS(=O)(=O)c2ccc(NC(=O)CCc3ccccc3)cc2)no1 | 0.3
COc1ccc(N2C(=O)NC3CC2(C)Oc2ccc(Cl)cc23)cc1OC (configuration not stated) | i
CCOc1ccc(NC(=O)CCC(=O)OC)cc1 | 0.7
Cc1onc(-c2ccccc2Cl)c1C(=O)N1CCc2ccccc21 | 1.0
Cn1nnnc1SCCNCC#Cc1ccccc1 | i
COc1cc(-c2nnc(SCC(=O)c3ccccc3)o2)cc(OC)c1OC | 2.0
CC(c1ccccc1C(O)c1ccccc1)N(C)C (configuration not stated) | i
O=C1OC(Nc2ccc3ncccc3c2)c2ccccc21 (configuration not stated) | 0.1
C=C(C)CSc1nc2c(cc1C#N)CCC2 | 1.7
CCOC(=O)c1[nH]c2c(c1C)C(=O)CC(c1ccc(OCC)c(OC)c1)C2 (configuration not stated) | i
COc1ccc(-c2onc(C)c2-c2ccc(C(=O)OC(C)C)o2)c(O)c1 | i
COc1cc(O)oc1C=Nc1ccc(Oc2ccccc2)cc1 | 2.6
CCOc1ccccc1C(=O)NC(C(=O)OCC(=O)Nc1nnc(-c2ccccc2)o1)C(C)C (configuration not stated) | 0.8
BrC(/C=N/Nc1nc(N2CCOCC2)nc(N2CCOCC2)n1)=C/c1ccccc1 | 2.1
CC(=O)NS(=O)(=O)c1ccc(NC(=O)C(Sc2ccccc2)c2ccccc2)cc1 (configuration not stated) | 1.7
Cc1nc2ccccc2c(=O)n1CCN1CCOCC1 | 1.5
Cc1ccc(/C=C2/CCc3c([nH]c4ccccc34)C2=O)cc1 | i
Cc1ccc(-c2cc(C(=O)Nc3ccc(S(=O)(=O)Nc4cc(C)on4)cc3)c3ccccc3n2)c(C)c1 | 0.7
CCCOc1ccc(Cc2nn[nH]n2)cc1 | i
CC(C)c1nc(SCC(=O)Nc2cccc(S(N)(=O)=O)c2)n[nH]1 | i
c1ccc2nc3c(nc2c1)CCc1nonc1-3 | i
Cc1ccc(/C=N/NC(=O)c2ccc(C(=O)N/N=C/c3ccc(C)s3)o2)s1 | 0.9
Cc1ccsc1C(=O)OCc1csc(-c2ccccc2)n1 | i
CC(=O)Oc1ccc(C(=O)Nc2nccs2)cc1 | 8.5
O=C(NCC1CCCO1)c1nn2cccnc2c1Cl (configuration not stated) | i
COc1ccc(OC)c(Nc2nc(-c3sc(N)nc3C)cs2)c1 | i
NCCCCCNC(=O)/C=N\O | 0.1
COc1cc(OC)cc(-n2nnnc2SCC(=O)NC2CCCC2)c1 | 0.6
C(=N\N1CCN(C2c3ccccc3-c3ccccc32)CC1)/c1ccccn1 | i
CC(C)(C)c1ccc(-c2csc(NC(=O)CN3C(=O)NC4(CCCCC4)C3=O)n2)cc1 | i
Cc1ccnc(SCC(=O)Nc2sc3c(c2C#N)CCC(C(C)(C)C)C3)n1 (configuration not stated) | 1.6
O=C(Nc1ccc(F)c(F)c1)NC1CCCCC1 | i
CCC1C(=O)N(c2nc(C)cc(C)n2)N=C1C (configuration not stated) | i
Cc1ccc(-n2ncc3c(=O)n(Cc4ccccn4)cnc32)cc1C | 1.0
CCOc1ccccc1OCC(=O)Nc1ccc(N2CCCCC2)cc1 | i
CCC(CCC(=O)Nc1ccc(S(N)(=O)=O)cc1)C(=O)O (configuration not stated) | i
Nc1n[nH]c(-c2ccc(F)cc2)n1 | 3.4
O=C(c1ccco1)N1CCN(C(=O)C2CC(c3ccc(F)cc3)=NO2)CC1 (configuration not stated) | 0.8
O=S(=O)(Nc1ncnc2sc3c(c12)CCC3)c1ccc2ccccc2c1 | 0.5
COc1ccc(-c2cc(C(=O)N3CCCCC3)no2)cc1OC | 1.7
Remaining list, next part:
SMILES | H5N1 CPE
CC(C)Oc1ccc(CC2CC(=O)NC2=O)cc1 (configuration not stated) | 0.0
CCCCCSc1nc2c(c(=O)[nH]c(=O)n2C)n1C | 4.6
CC(C)NC(=O)COc1ncnc2sccc12 | 0.8
COc1ccc(Cl)cc1C(=O)CSc1nnnn1C1CCCC1 | 0.1
N#Cc1cc2c(nc1SCC(=O)Nc1cc(Cl)cc(Cl)c1)C1CCN2CC1 | 0.0
CC(C)Cn1c(-c2ccco2)csc1=Nc1cccnc1 | 1.2
O=C1c2ccccc2C(=O)C1Cc1cccc2ccccc12 | 0.4
COc1cc(-n2nc(C)c3c2OC(N)=C(C#N)C3c2ccccc2)c(Cl)c(Br)c1O (configuration not stated) | i
COc1ccc(NC(=O)CN(C)S(=O)(=O)c2ccccc2)cc1 | i
O=C(CN1CCN(c2ccccc2)CC1)c1ccc2cc[nH]c2c1 | 0.4
CC(C)Nc1nc(SCC(N)=O)nc(N2CCOCC2)n1 | i
Cc1cc(C)c2[nH]c(=O)c(CN(Cc3nnnn3C3CCCC3)C3CCCCC3)cc2c1 | 0.5
O=C(COc1ccccc1)OCc1cc2ccccc2[nH]c1=O | i
O=C(Cc1ccc(F)cc1)NCCc1ccccc1 | 0.3
Cc1ccc(C)c(S(=O)(=O)NCc2ccc(C(=O)NCc3ccccn3)cc2)c1 | i
CC1CC(C)CN(C(=O)c2cc3c(s2)CCC3)C1 (configuration not stated) | 0.2
O=C(Nc1nnc(SCc2ccccc2)s1)c1cccs1 | i
COC(=O)/C=C/S(=O)(=O)c1ccc(NC(C)=O)cc1 | i
CCNC(=O)Cn1cnc2c1c(=O)n(C)c(=O)n2C | 0.9
O=CN(Cc1ccco1)C1(C(=O)NC2CCCCC2)CCCCC1 | i
CC1CCN(c2cc(N3CCC(C)CC3)c([N+](=O)[O-])cc2/C=C(\C#N)c2nn(-c3ccccc3)c(N)c2C#N)CC1 | 1.6
CC(=O)NC1(C(F)(F)F)NC(=O)N(CC(C)C)C1=O (configuration not stated) | 0.1
CC(C)OC(=O)c1c(NC(=O)CCn2nnc3ccccc32)sc2c1CCCC2 | i
COc1cnc(-c2ccccn2)nc1Oc1ccc(Cl)c2ccccc12 | 0.9

24 neighbouring entries already listed, for reference:
SMILES | H5N1 CPE
CC(C)Oc1ccc(CC2CC(=O)NC2=O)cc1 (configuration not stated) | 0.0
CCCCCSc1nc2c(c(=O)[nH]c(=O)n2C)n1C | 4.6
CC(C)NC(=O)COc1ncnc2sccc12 | 0.8
COc1ccc(Cl)cc1C(=O)CSc1nnnn1C1CCCC1 | 0.1
N#Cc1cc2c(nc1SCC(=O)Nc1cc(Cl)cc(Cl)c1)C1CCN2CC1 | 0.0
CC(C)Cn1c(-c2ccco2)csc1=Nc1cccnc1 | 1.2
O=C1c2ccccc2C(=O)C1Cc1cccc2ccccc12 | 0.4
COc1cc(-n2nc(C)c3c2OC(N)=C(C#N)C3c2ccccc2)c(Cl)c(Br)c1O (configuration not stated) | i
COc1ccc(NC(=O)CN(C)S(=O)(=O)c2ccccc2)cc1 | i
O=C(CN1CCN(c2ccccc2)CC1)c1ccc2cc[nH]c2c1 | 0.4
CC(C)Nc1nc(SCC(N)=O)nc(N2CCOCC2)n1 | i
Cc1cc(C)c2[nH]c(=O)c(CN(Cc3nnnn3C3CCCC3)C3CCCCC3)cc2c1 | 0.5
O=C(COc1ccccc1)OCc1cc2ccccc2[nH]c1=O | i
O=C(Cc1ccc(F)cc1)NCCc1ccccc1 | 0.3
Cc1ccc(C)c(S(=O)(=O)NCc2ccc(C(=O)NCc3ccccn3)cc2)c1 | i
CC1CC(C)CN(C(=O)c2cc3c(s2)CCC3)C1 (configuration not stated) | 0.2
O=C(Nc1nnc(SCc2ccccc2)s1)c1cccs1 | i
COC(=O)/C=C/S(=O)(=O)c1ccc(NC(C)=O)cc1 | i
CCNC(=O)Cn1cnc2c1c(=O)n(C)c(=O)n2C | 0.9
O=CN(Cc1ccco1)C1(C(=O)NC2CCCCC2)CCCCC1 | i
CC1CCN(c2cc(N3CCC(C)CC3)c([N+](=O)[O-])cc2/C=C(\C#N)c2nn(-c3ccccc3)c(N)c2C#N)CC1 | 1.6
CC(=O)NC1(C(F)(F)F)NC(=O)N(CC(C)C)C1=O (configuration not stated) | 0.1
CC(C)OC(=O)c1c(NC(=O)CCn2nnc3ccccc32)sc2c1CCCC2 | i
COc1cnc(-c2ccccn2)nc1Oc1ccc(Cl)c2ccccc12 | 0.9

(more compounds)
SMILES | H5N1 CPE
COc1ccc(C(=O)NCC(=O)OCC(=O)NC(=O)NC2CCCCC2)cc1OC | 0.3
CC(C)Cn1c(=O)c2c(c3ccccc31)OC(C)C(=O)N2 (configuration not stated) | 1.4
Cc1nc2ccccc2c2oc(C(=O)N3CCN(C(=O)c4ccco4)CC3)cc12 | 0.7
COC(=O)c1ccn(-c2nc(-c3ccco3)cc(C(F)(F)F)n2)n1 | i
COCCN1C(=O)c2ccc(C(=O)NCc3cccnc3)cc2C1=O | i
O=C(C1CCN(CCCc2ccccc2)CC1)N1CCCCC1 | i
C/C(=N/OC(=O)c1ccc(F)cc1)c1ccc(C)cc1 | i
COc1ccc(-n2nnnc2SCC(=O)Nc2cccc(C)n2)cc1OC | 0.6
COc1cc(O)c2c(c1)OC(C)(C)CC2=O | 0.3
CCCn1nc2cc(C(=O)N(CC)c3ccc(OC)cc3)ccc2c1OCC | 1.5
Cc1c(S(=O)(=O)N2CCOCC2)c(=O)n(C)c(=O)n1C | 1.6
N/C(=N\OC(=O)c1cccc(Br)c1)c1ccc(Br)cc1 | i
O=C1CC(C(=O)N2CCOCC2)C2(CCCC2)O1 (configuration not stated) | i
CCN(CC)S(=O)(=O)c1ccc(S(=O)(=O)Nc2cc3c(cc2C(C)=O)OCO3)cc1 | i
CCCCN(CCCNc1ncnc2nc[nH]c12)c1ccccc1 | 7.2
COc1cccc(CNCCN2CCOCC2)c1OC | i
O=C(NCc1ccc2c(c1)OCO2)c1cccc(N2CCCC2=O)c1 | 0.2
COc1ccc(-c2noc(C3CCCN(C(=O)c4ccccc4OC)C3)n2)cc1OC (configuration not stated) | 0.0
CCN(CCNC(=O)Cn1cc2c(n1)CCCC2)c1ccccc1 | i
CCN1C(=O)CC(N2CCC(Cc3ccccc3)CC2)C1=O (configuration not stated) | i
O=C(Nc1ccc(Cl)cc1)N(Cc1nnc2n1CCCCC2)c1ccccc1 | i
CCC(C)N1Cc2ccccc2C1=N (configuration not stated) | 1.0
O=C(CN1C(=O)NC(Cc2ccccc2)C1=O)NC(=O)NC1CCCCC1 (configuration not stated) | 0.8
Cc1ccc(S(=O)(=O)Cn2nnnc2C(C(C)C)N2CCc3ccccc3C2)cc1 (configuration not stated) | i
CCOC(=O)C1=C(C)Nc2nc3ccccc3n2C1c1ccncc1 (configuration not stated) | i
COCc1nnc(NC(=O)c2ccc(S(=O)(=O)N3CCCCCC3)cc2)o1 | i
Cc1ccc(Cl)cc1N1CCN(C(c2cccnc2)c2nnnn2C2CCCCC2)CC1 (configuration not stated) | 1.9
CN1CCN(c2c(N)c(=O)oc3ccccc23)CC1 | 0.2
CC(C)C(C(=O)Nc1ccc(N2CCOCC2)cc1)N1C(=O)c2ccccc2C1=O (configuration not stated) | i
COc1ccc(OC)c(NC(=O)CSc2nnnn2-c2ccc3c(c2)OCO3)c1 | 0.3
CC(C)(C)n1nnnc1C(c1ccncc1)N1CCN(c2ccc(O)cc2)CC1 (configuration not stated) | 0.1
Cc1ccccc1OCC(=O)Nc1ccccc1N1CCOCC1 | 0.6

This is a subset (hit frequency here may not be typical).
